CSC inhib: cancer stem cell inhibition; cancer stem cell-like cells viability, luminescence; inhibition, % at 7.5 µM; 1.1% of 300,000 active; AID 2717;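 active = mean at 75% or more and at least half the replicates too; inconclusive = mean and replicates disagree; tested in HMLE shEcad cells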;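 also: 0% = median of negative and 100% = median of positive control wells; the first replicate is given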
eIF4H FP inh: inhibitors of RNA binding by human eIF4H; inhibition, % at 35 µM; eIF4H fluorescence polarization binding assay; 0.94% of 290,000 active; AID 2012;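 active = 50% or more with normal probe brightness, or confirmed in later tests; inconclusive = above 50% with abnormal brightness, or retests that disagree; inactive = below 50% or failed in later tests; about a fifth of its hits are not listed in these tables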;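 also: calls also rest on retests at 20 µM and on dose response follow-up; 0% = protein and probe with vehicle and 100% = probe without protein; strong numbers were not always called active; many hits fall short of the cut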
MT1-MMP act inh: MT1-MMP (human) activation inhibition; P50281; 0.061% of 360,000 active; HT1080 RFP-PRO-GFP cells, GFP/RFP ratio fluorescence, overnight; percent of plate control window, DMSO zero; AID 651647; GFP/RFP ratio change, % at 20 µM;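 active = GFP/RFP ratio change of at least 30% with cell ATP level not reduced by more than half and red fluorescence within 50% of control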; also: strong numbers were not always called active
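Test system: HT1080 cells expressing an RFP-PRO-GFP fluorescent reporter construct / Compound dosing: single-point 20 µM compound, 1% DMSO / Schedule: cells overnight before dosing, compound overnight, 37 °C, 5% CO2 / Evaluation: GFP/RFP fluorescence ratio / Control set: DMSO and RFP-L50D-GFP cell wells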
Yeast UUG start: yeast start codon fidelity modulation; 0.13% of 350,000 active; AID 602363; activity score, % at 18.7 µM; S. cerevisiae UUG-firefly luciferase reporter, luminescence/redox ratio;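 active = replicate mean at a twofold rise or more, about +100% in these data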;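 also: firefly luciferase made from a UUG start codon reports start codon fidelity; reporter light over untreated wells divided by growth signal over untreated wells; some hits fall short of that in this replicate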
PABP polyA inh: blocks human PABP binding to poly(A) RNA; 1% of 290,000 active; fluorescence polarization; inhibition, % at 35 µM; P11940;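 active = 50% or more with normal probe brightness, or confirmed in later tests; inconclusive = above 50% with abnormal brightness, or retests that disagree; inactive = below 50% or failed in later tests; about a fifth of its hits are not listed in these tables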;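 also: calls also rest on retests at 20 µM and on dose response follow-up; controls were probe without protein and protein plus probe with vehicle; some compounds called inactive have numbers as strong as hits; many hits fall short of the cut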
Target sequence (P11940 whole entry, looked up): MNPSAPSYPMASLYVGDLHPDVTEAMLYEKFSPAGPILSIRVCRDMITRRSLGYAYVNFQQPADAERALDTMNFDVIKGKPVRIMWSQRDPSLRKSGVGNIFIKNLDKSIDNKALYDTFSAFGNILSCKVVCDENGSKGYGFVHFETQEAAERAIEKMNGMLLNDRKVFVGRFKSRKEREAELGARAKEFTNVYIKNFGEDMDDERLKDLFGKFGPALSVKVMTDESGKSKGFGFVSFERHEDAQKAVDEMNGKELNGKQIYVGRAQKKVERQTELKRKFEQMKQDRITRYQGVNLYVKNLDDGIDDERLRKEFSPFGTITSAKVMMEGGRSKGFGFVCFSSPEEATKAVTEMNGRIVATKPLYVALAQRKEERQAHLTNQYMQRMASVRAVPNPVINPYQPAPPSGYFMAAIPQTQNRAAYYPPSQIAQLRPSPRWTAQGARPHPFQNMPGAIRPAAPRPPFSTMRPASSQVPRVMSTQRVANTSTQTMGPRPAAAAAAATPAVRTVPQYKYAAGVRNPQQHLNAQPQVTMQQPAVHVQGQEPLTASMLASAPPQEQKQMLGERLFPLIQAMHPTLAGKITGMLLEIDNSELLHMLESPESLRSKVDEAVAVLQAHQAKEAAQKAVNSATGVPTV
Env fusion inh: blocks HIV Env-driven cell-cell fusion; HeLa-JRFL Env/CEM21 cell fusion, luciferase; inhibition, % at 12.3 µM; 1.1% of 360,000 active; AID 651610;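 active = mean replicate inhibition score of at least 50 and every replicate individually at or above 50; inconclusive = only one of the two criteria met; inactive = mean below 50 and not all replicates reaching 50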;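 also: 0% = plate neutral controls and 100% = maraviroc near 300 nM; one replicate is shown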
Rce1 inhib: blocks yeast Ras-converting enzyme; calls only; 0.27% of 290,000 active; AID 2563; yeast membranes, quenched prenylated peptide cleavage fluorescence;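 active = fall in fluorescence gain of 50% or more versus controls, with final raw signal at or below 3038400; inconclusive = same 50% fall but final raw signal above 3038400; inactive = fall in fluorescence gain under 50%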;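 also: plate controls were neutral control wells for no effect and wells lacking membranes for full effect; tested at 10 µM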
eIF4H FP inh retest: further read-out of eIF4H FP inh, marked with its call; inhibition, %; compound at 20 µM; confirmation average;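 mean of two retest wells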
PABP polyA inh retest: recorded beside PABP polyA inh, whose call it bears; inhibition, %; compound at 20 µM; confirmation repeats;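 mean of two retest wells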
MT1-MMP act inh RFP: recorded beside MT1-MMP act inh, whose call it bears; RFP signal change, %; measured here: RFP expression control read;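 0 = vehicle wells; hits needed this value within 50% of zero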
Starred values were filed as active, the others as inactive; i = inactive; ? = inconclusive; . = not tested or not shown. These rows are one share of the data (hit frequency here may not be typical).

SMILES	CSC inhib	eIF4H FP inh	MT1-MMP act inh	MT1-MMP act inh RFP	Yeast UUG start	PABP polyA inh	Env fusion inh	Rce1 inhib	others
Cc1ccc(C)c(-c2nc3ccc(N)cc3[nH]2)c1	30.6	-5.7	14.5	4.2	-5.9	0.0	25.0	i
c1coc(-c2nn3c(-c4ccco4)nnc3s2)c1	8.6	95.4*	1.5	-1.0	-23.3	91.3*	-130.8	i
N#C/C(=C\c1ccc[nH]1)Sc1nc2ccccc2s1	6.9	12.3	-0.8	-0.2	1.1	-3.2	.	i
COc1ccc(C2CC(c3ccccc3)=NN2c2ccc(N)cc2)cc1 (centres undefined)	4.7	-7.8	8.6	18.4	.	-1.1	-0.5	i
COc1cc(C(=O)NC(=S)Nc2ccc3[nH]c(=O)[nH]c3c2)cc(OC)c1OC	-9.6	-10.1	7.0	-5.8	-11.8	13.0	-8.9	i
CCOC(=O)CSC1=C(C#N)C(c2ccc(C)cc2)C2=C(CCCC2=O)N1 (centres undefined)	-7.8	-1.9	12.3	-16.6	-10.8	-7.9	.	i
CCOc1ccccc1C(=O)NC(C)CCc1ccccc1 (centres undefined)	20.6	.	1.6	-1.1	-4.3	.	11.3	i
COc1cccc(C(=O)NCC(=O)N/N=C/c2ccc(OC(=O)c3cccs3)c(OC)c2)c1	-4.4	2.0	5.9	7.3	-9.7	3.8	.	i
Cc1cc2cc(CNC(=O)C(C)Oc3ccccc3)ccc2n1C (centres undefined)	1.3	73.1	49.8	62.6	.	24.1*	-4.0	i	eIF4H FP inh retest=28.7;PABP polyA inh retest=56.1*
CCNC(=O)NC(=O)C(C)Sc1ncc(C(F)(F)F)cc1Cl (centres undefined)	15.5	8.3	2.5	0.6	-12.6	?	3.8	i
CC(C)CN(CC(C)C)S(=O)(=O)N1CCC(C(=O)N2CCc3ccccc3C2)CC1	26.4	4.7	-1.0	-1.6	-3.9	-10.3	.	i
O=C(NNC(=O)c1cc2ccccc2oc1=O)c1ccccc1[N+](=O)[O-]	0.3	-0.4	-1.9	1.8	-18.2	6.4	-2.3	i
Cc1ccc(NC(=O)CCNS(=O)(=O)c2ccc3[nH]c(=O)oc3c2)cc1C	-16.0	1.3	6.6	5.1	-14.5	10.1	2.6	i
Cc1ccc(C(=O)Cc2ccccc2)c(O)c1	.	.	-2.7	3.1	0.0	.	-7.7	.
Cc1oc(/N=C/c2cccc3ccccc23)c(C#N)c1C	-8.9	20.2	-8.6	6.0	-7.0	19.4	.	i
COc1ccc(Nc2nc3[nH]c(=O)cc(O)c3s2)cc1	12.4	56.3*	1.7	1.6	.	3.1	9.9	i	eIF4H FP inh retest=88.3*;PABP polyA inh retest=47.9
CCOC(=O)c1[nH]c2ccc(F)cc2c1NC(=O)c1cc(OC)c(OC)c(OC)c1	7.4	-9.1	16.8	-0.7	-9.6	-4.3	.	i
O=C(NCc1ccc2c(c1)OCO2)C(=O)NCC1OCCCN1S(=O)(=O)c1ccc(F)cc1 (centres undefined)	6.5	-0.7	-4.3	-4.8	-24.8	-3.0	5.9	i
Cc1cc(C(=O)COC(=O)Cn2c(C(F)(F)F)nc3ccccc32)c(C)n1Cc1ccco1	-14.3	4.8	0.3	-5.0	-6.1	5.9	-64.1	i
O=C(CNC(=O)c1ccc(Br)cc1)N/N=C/c1cccnc1	0.4	-11.8	4.8	4.3	-9.6	0.4	-6.1	i
C=C1CCN([C@@H](Cc2ccccc2)C(=O)NC2CCN(Cc3ccccc3)CC2)S(=O)(=O)c2ccccc21	-2.0	.	1.4	2.2	-19.6	.	-1.9	i
Cc1ccc(OCC(O)CNC2CCCC2)cc1C (centres undefined)	3.4	6.0	3.6	4.6	-11.3	-2.8	-1.0	i
CN(Cc1ccccc1)C(=O)c1ccccc1-c1ccccc1	-3.3	3.8	-0.6	0.3	-8.2	-13.7	4.2	i
Cc1cc(COC(=O)C2N3C(=O)[C@@H](NC(=O)COc4ccccc4)[C@H]3SC2(C)C)on1 (some centres undefined)	4.9	4.7	-1.2	0.1	16.7	-5.4	-20.1	i
CCNc1ccc(S(=O)(=O)N(C)C)cc1NCC(=O)Nc1ccccc1Br	9.0	5.1	-2.3	-0.7	-13.2	-7.2	20.9	i

The last 2 compounds of the part above come first, to join the parts:
SMILES	CSC inhib	eIF4H FP inh	MT1-MMP act inh	MT1-MMP act inh RFP	Yeast UUG start	PABP polyA inh	Env fusion inh	Rce1 inhib	others
Cc1cc(COC(=O)C2N3C(=O)[C@@H](NC(=O)COc4ccccc4)[C@H]3SC2(C)C)on1 (some centres undefined)	4.9	4.7	-1.2	0.1	16.7	-5.4	-20.1	i
CCNc1ccc(S(=O)(=O)N(C)C)cc1NCC(=O)Nc1ccccc1Br	9.0	5.1	-2.3	-0.7	-13.2	-7.2	20.9	i
O=c1[nH]c(/C=C/c2cccc3ccccc23)nc2ccccc12	6.2	-1.2	-1.2	6.5	.	-6.3	0.2	i
O=C1COc2ccc(S(=O)(=O)N3CCN(c4cccc(Cl)c4)CC3)cc2N1	4.9	3.0	-0.1	1.5	-12.4	6.7	1.1	i
COc1ccc(OC)c(NC(=O)C(CC(=O)O)NCc2ccco2)c1 (centres undefined)	0.5	6.1	3.9	3.4	-8.6	-0.6	.	i
CCC(C)(C(=O)NC1CCCCC1)N(CC1CCCO1)C(=O)c1ccccn1 (centres undefined)	2.7	6.5	4.0	4.2	5.1	5.0	4.1	i
CCOc1ccc(Oc2nc(NCC(C)C)nc(OC)n2)nn1	-19.0	5.0	3.8	4.9	4.0	-4.4	-33.9	i
O=C(CCc1nnc(C2CCCCC2)o1)NCc1cccc(-n2cccn2)c1	-9.5	0.8	-0.9	-2.7	.	-11.2	-25.5	i
CC(NC(=O)c1ccccc1)c1nc2ccccc2n1Cc1ccc(C#N)cc1 (centres undefined)	5.5	-6.3	-2.1	1.3	-8.6	-4.7	.	i
Cc1ccc(C(O)c2ccncc2)cc1 (centres undefined)	0.9	-3.6	4.5	-0.5	.	4.6	.	i
CCN1CNC(=S)N(Cc2ccccc2)C1	-21.1	-3.5	0.2	0.9	-13.9	13.8	0.3	i
CCOC(=O)c1sc2nc(NC(=O)C(C)(C)C)sc2c1C	20.7	-8.2	-9.1	-19.8	-43.0	-2.1	-209.1	i
CN(C)c1ccc(/C=N/NC(=O)CN2CCCCC2)cc1Br	-11.7	-6.1	2.3	4.2	-10.5	-4.0	12.4	i
Cc1cc(NC(=O)c2noc3c2CCCCC3)nn1Cc1ccc(Cl)cc1	-11.3	-3.9	-2.3	-4.8	.	-1.1	1.4	i
COCCNC(=S)N(CCc1c(C)[nH]c2ccc(OC)cc12)Cc1cccnc1	8.3	-6.1	-3.0	1.8	5.4	-3.7	8.7	i
O=S(=O)(Nc1ccc(-c2nnc(SCc3ccc(Cl)cc3)o2)cc1)c1ccccc1	91.9*	2.5	12.9	0.5	.	48.5	9.5	i
COC(=O)c1cc(-c2ccc(F)cc2)n(-c2ccccc2)n1	-3.2	-4.4	0.1	2.1	-3.5	4.8	1.6	i
CC(C)CC(=O)NC(=S)Nc1ccc(S(=O)(=O)N2CCCC2)cc1	-14.7	-6.6	1.3	2.4	.	0.4	7.8	i
O=C(CS(=O)(=O)c1ccccc1)Nc1nnc(Cc2ccccc2)s1	-6.3	-11.0	-3.0	2.6	-16.0	-7.3	-13.7	i
COc1ccc(C(=O)CCNc2cccc(Cl)c2)cc1	8.0	-9.4	5.5	3.8	-22.5	-7.9	-23.8	i
CC(=O)Nc1c(C#N)c(C(C)(C)C)cn1C	-15.4	5.7	2.1	7.4	-17.3	-6.3	-4.4	i
COc1cc(C2C3C(=O)N(c4ccccc4)C(=O)C3ON2c2ccccc2)cc(OC)c1OC (centres undefined)	-7.2	-4.4	1.0	3.7	-2.5	0.6	.	.
CNC(=O)C1=C(C)Nc2nc3ccccc3n2C1c1ccc(F)cc1 (centres undefined)	-25.5	-4.7	0.6	6.0	-10.8	-12.4	-28.9	i
CC(=O)Nc1ccc(S(=O)(=O)NC2(C(F)(F)F)C(=O)NC(C)=C2C#N)cc1 (centres undefined)	-1.1	94.8	-8.3	6.6	.	72.7	25.7	i	eIF4H FP inh retest=-8.7;PABP polyA inh retest=6.8
Cc1cccc(N(CC(=O)N2CCCC2)S(=O)(=O)c2ccccc2)c1C	-7.6	-10.1	-2.6	2.1	2.9	-3.8	.	i
CC(/C=C/c1ccco1)=N\NC(=O)CNc1ccc2ccccc2c1	1.6	105.7	-5.7	0.5	.	-13.7	1.4	i	eIF4H FP inh retest=-1.8;PABP polyA inh retest=4.8
Cc1nnc(SCC(=O)Nc2ccc(Cl)cn2)n1Cc1ccccc1	-13.7	-1.1	2.5	-1.1	-10.9	4.4	-36.0	i
Going on with the list:
SMILES	CSC inhib	eIF4H FP inh	MT1-MMP act inh	MT1-MMP act inh RFP	Yeast UUG start	PABP polyA inh	Env fusion inh	Rce1 inhib	others
CCc1cc2c(C)ccc(C)c2nc1SCC(=O)Nc1cc(C)on1	.	-3.8	1.6	6.0	-5.7	5.4	11.0	i
CCn1c(SCC(=O)c2ccc(CNC(C)=O)o2)nnc1-c1cccs1	-13.2	20.7	-0.5	-1.6	-15.0	16.5	-47.7	i
Cc1cc(C)nc(SC2c3cccc4cccc(c34)C2NS(=O)(=O)c2ccccc2)n1 (centres undefined)	4.5	9.7	-1.3	-8.5	2.7	2.9	29.3	i
CCOc1cc(S(=O)(=O)N(CC)CC)ccc1Cl	-16.1	-6.7	4.0	-11.1	.	-1.6	14.6	i
CCN(c1ccccc1)S(=O)(=O)c1ccc(Cl)c(NC(=O)COC(=O)c2ccc[nH]c2=O)c1	-15.1	-7.1	-3.0	-5.9	.	13.0	0.1	i
CC(C)c1ccc(S(=O)(=O)N2CCN(C(=O)c3cccc(S(=O)(=O)N4CCOCC4)c3)CC2)cc1	.	.	1.7	-13.2	9.1	.	8.6	.
O=C(CNS(=O)(=O)c1ccc(Br)cc1Cl)OCC(=O)c1ccc[nH]1	-1.3	.	2.2	4.5	-9.6	.	-7.7	i
COCCNC(=O)Cn1nc(C(F)(F)F)cc1C	.	-0.4	2.9	3.9	-5.5	-1.4	.	.
CC1(C(=O)N2CCCCC2)CCN1C(=O)Cc1ccc(-c2ccccc2)cc1 (centres undefined)	.	.	3.3	1.9	10.5	.	-13.7	.
COc1ccc(C(NC(=O)C2CCN(CCCc3ccccc3)CC2)c2cccs2)cc1 (centres undefined)	.	.	2.6	1.8	5.0	.	1.5	.
O=C(OCC(=O)N1CCCCCC1)c1n[nH]c(=O)c2ccccc12	-13.4	-1.0	13.0	7.3	-2.1	-4.0	13.2	i
CC1CCCC(NC(=O)COC(=O)c2cccnc2Cl)C1C (centres undefined)	.	.	-0.7	1.4	-11.9	.	8.0	.
CCOc1ccc2nc(NC(=O)Cn3cnc4c3c(=O)n(C)c(=O)n4C)sc2c1	15.9	0.4	-2.1	-3.0	-11.9	-10.1	-23.5	i
COC(=O)c1ccc(Nc2ncnc3c2cnn3-c2cccc(C)c2)cc1	-10.8	-14.3	1.0	-3.0	-16.6	-7.2	-10.3	i
CN1CCN(c2ccc(C(CC(N)=O)NC(=O)Cc3ccc(Br)cc3)cc2[N+](=O)[O-])CC1 (centres undefined)	0.1	-7.3	2.1	8.9	-11.3	1.0	-4.6	i
CCCC(=O)NC(Nc1ccc(S(=O)(=O)Nc2cc(C)on2)cc1)(C(F)(F)F)C(F)(F)F	-8.7	.	-1.5	-1.7	-3.4	.	.	i
C=CCc1cc(/C=N/NC(=O)CSc2nnc(CCCc3ccc(OC)cc3)o2)cc(OC)c1O	-4.8	-3.0	0.0	-5.1	-13.3	-8.4	.	i
